Bioassay records from PubChem.
Bead autofluor: counter-screen for toxin protease inhibitors: compound fluorescence; 3.1% of 360,000 active; compound autofluorescence counterscreen, microsphere flow cytometry; active compounds read high; fluorescence intensity (test concentration not listed);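 active = at least 3 SD above the mean of all compounds, about 16000 in these data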;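 also: 100 nL of 1 mM stock went into each well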
PrP UTR inh: inhibition of PrP 5' UTR reporter expression; cell-based PrP 5' UTR mRNA reporter, plate reader; AID 488862, 2010; 0.35% of 340,000 active; inhibition, % (no concentration beside the values);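 active = every replicate at 50% or more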;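 also: 0 = median of the neutral control wells; tested in H4 reporter cells; numbers are from one replicate; inactives centre near -14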
* marks the source's active call; other numbers are inactive results.

SMILES	Bead autofluor	PrP UTR inh
CC(C)(C)OC(=O)N[C@@H](/C=C/c1ccccc1)C(=O)OC(C)(C)C	3062	-10
CC=C(CC)C1(CC)C(=O)NC(=S)NC1=O	3284	-13
CCOC(=O)[C@H]1[C@H]2COc3ccc(C)cc3[C@@H]2N2C(=O)c3cc(C)ccc3NC(=O)[C@@]12C	4382	-29
CCc1nc(N)nc(N)c1-c1ccc(N(C)Cc2ccccc2)c([N+](=O)[O-])c1	3996	-12
CSc1nc(N)nc2c1ncn2C1OC(CO)CC1O (stereo unspecified)	3553	-23
COc1ccccc1C1=CC(=O)C[C@H](c2ccc3c(c2)OCO3)C1	3683	0
CCOC(=O)C1=CC[C@@H](c2cc(OC)c(OC)c(OC)c2)N(S(=O)(=O)c2ccc(C)cc2)[C@H]1C(=O)OCC	3288	-34
CCCCSc1nc2c([nH]1)c(=S)n(C)c(=O)n2C	4026	-18
O=C1NC(=O)C(=Cc2c(Cl)cccc2Cl)C(=O)N1	3586	-49
O=[N+]([O-])c1ccccc1/C=N\N1CCN(c2ccccc2)CC1	4410	-21

Molecules above that have nitrogen in an aromatic ring, in the order listed:
SMILES	Bead autofluor	PrP UTR inh
CCc1nc(N)nc(N)c1-c1ccc(N(C)Cc2ccccc2)c([N+](=O)[O-])c1	3996	-12
CSc1nc(N)nc2c1ncn2C1OC(CO)CC1O (stereo unspecified)	3553	-23
CCCCSc1nc2c([nH]1)c(=S)n(C)c(=O)n2C	4026	-18

Further entries.
SMILES	Bead autofluor	PrP UTR inh
O=C1CCn2c1c(O)c1ccccc1c2=O	3237	-9
COC(=O)C1=C(c2ccc3ccccc3c2)C[C@@H]2CC[C@H]1N2C	2805	-3
CC(C)(C)OC(=O)C[C@H]1C/C=C\C[C@H](CC(=O)N(CCO)Cc2ccccc2)C(=O)NC[C@H](c2ccccc2)OC1=O	3991	-8
CC(C)(C)CC(C)(C)N=C1Nc2ccccc2NC12C[C@H]1CCC(=O)N3CC[C@@H](C2)[C@@H]13 (stereo partly specified)	3798	-6
O=C(Nc1ccc(S(=O)(=O)N2CCOCC2)cc1)c1ccc(Cl)c([N+](=O)[O-])c1	3988	-11
COC(=O)C1=C(c2ccc(Cl)c(C(F)(F)F)c2)C[C@@H]2CC[C@H]1N2C(=O)NCCO	3847	-41
CC(C)Oc1cccc(C(=O)N/N=C/c2coc3ccccc3c2=O)c1	4753	-17
COc1cc([C@H]2OC[C@H]3[C@@H]2CO[C@H]3c2ccc(O)c(OC)c2)ccc1O	3127	-9
CC(=NNC(=S)SCc1ccccc1)c1ccccn1	3593	-24
CC(=O)c1ccc(S(=O)(=O)N2CCN(C(C)C(=O)N(C)Cc3ccccc3)CC2)cc1 (stereo unspecified)	3729	11
O=C1C=C(c2ccc(C(=O)O)c(Cl)c2)C[C@@H](c2ccc3c(c2)OCO3)C1	4262	-9
CC(C)[C@H](NC(=O)c1ccccc1Cl)C(=O)OCC(=O)NCc1ccc2c(c1)OCO2	3844	-36
CCCCCC1C(=O)CCC1CC(=O)OC (stereo unspecified)	5021	-31
COC(=O)C1=C(c2cccc(C#N)c2)C[C@@H]2CC[C@H]1N2C(=O)NCCOc1ccccc1Cl	3585	-11
O=C(NC(CO)(CO)CO)[C@@H]1CCCN1S(=O)(=O)c1cccc2cccnc12	4052	-6
O=C(NN=Cc1cc(Cl)ccc1[N+](=O)[O-])c1cccc2ccccc12	3398	43
CC(C)C[C@H]1CNC(=S)N1CC1CCN(CC2CCCC2)CC1	3102	-4
C[C@@H]1O[C@@H](O[C@H]2C[C@@H](O)[C@]3(CO)[C@@H]4C(CC[C@]3(O)C2)[C@@]2(O)CC[C@H](C3COC(=O)C3)[C@@]2(C)C[C@H]4O)[C@H](O)[C@H](O)[C@H]1O (stereo partly specified)	4416	48
O=C(O)c1ccccc1N=N/C(=N/Nc1cc(S(=O)(=O)O)ccc1O)c1ccccc1	2906	-16
COc1ccc(C2c3cc4c(cc3OC(NNC(N)=O)C2C)OCO4)cc1 (stereo unspecified)	2873	6

Looked up by structure from the list above:
SMILES	Bead autofluor	PrP UTR inh
COC(=O)C1=C(c2cccc(C#N)c2)C[C@@H]2CC[C@H]1N2C(=O)NCCOc1ccccc1Cl	3585	-11
O=C(O)c1ccccc1N=N/C(=N/Nc1cc(S(=O)(=O)O)ccc1O)c1ccccc1	2906	-16
CC(C)[C@H](NC(=O)c1ccccc1Cl)C(=O)OCC(=O)NCc1ccc2c(c1)OCO2	3844	-36
CC(C)C[C@H]1CNC(=S)N1CC1CCN(CC2CCCC2)CC1	3102	-4
O=C(NN=Cc1cc(Cl)ccc1[N+](=O)[O-])c1cccc2ccccc12	3398	43

Next section.
SMILES	Bead autofluor	PrP UTR inh
COC1OC(O)C(NC(=O)C(F)(F)F)CC1O (stereo unspecified)	4308	-14
CSc1ccc(C2=CC(=O)C[C@H](c3ccc(Cl)cc3)C2)cc1	4250	-22
O=C(/C=C(O)/C=C/c1ccc(O)cc1)/C=C/c1ccc(O)cc1	3766	-1
CCOC(=O)[C@H]1[C@H]2COc3ccc(OC)cc3[C@@H]2N2C(=O)c3cc(OC)ccc3NC(=O)[C@@]12C	4156	-13
Cc1ccc(N)cc1N	4952	-14
Cc1ccc(NC(=O)c2nc[nH]c2C(=O)NCCCNC(=O)c2[nH]cnc2C(=O)Nc2ccc(C)cc2)cc1	3644	-31
O=C(Nc1csnn1)OCc1ccccc1	3619	-40
COc1cc(/C=C/C(=O)OC[C@H]2O[C@H](OC3(CO)OC(CO)C(O)C3O)[C@H](O)[C@@H](O)[C@@H]2O)ccc1O (stereo partly specified)	4173	-4
COc1cc2c(c(OC)c1OC)-c1ccc(SC)c(=O)cc1C(NC(=O)c1ccccc1)CC2 (stereo unspecified)	2800	56*
C[C@H](CO)N1C[C@H](C)[C@@H](CN(C)Cc2ccc(Cl)c(Cl)c2)Oc2c(NC(=O)CCC(F)(F)F)cccc2C1=O	4136	-31
COc1ccc(-c2sc3ccc(N4CCOCC4)cc3c2C#CC(C)(C)O)cc1	3529	-20
Cc1ccc2c(c1)[C@H]1[C@H](CO2)[C@H](c2ccccc2)[C@]2(C)C(=O)Nc3ccc(F)cc3C(=O)N12	3776	-15
CC(OC(=O)c1ccc(S(=O)(=O)NCc2ccco2)cc1)C(=O)Nc1ccccc1 (stereo unspecified)	2920	-4
CCOC(=O)[C@H]1[C@H]2COc3ccc(OC)cc3[C@@H]2N2C(=O)c3cc(OC)c(OC)cc3NC(=O)[C@@]12C	3984	30
COC(=O)c1ccc(CNC(=O)Cn2cc(C)c(=O)[nH]c2=O)cc1	3802	-25
COc1ccccc1NC(=O)c1ccc(NC(=O)C2CC2)cc1	4386	-8
COc1ccc(-c2sc3ccc(N4CCOCC4)cc3c2C#CC2(O)CCCCC2)cc1	3636	-28
O=C1CCC/C=C\C[C@@H](CC(=O)N(CCO)Cc2ccccc2)C(=O)NCCO1	2699	-8
CN1CCN(c2ccc3c(c2)C2CC3CCN2C(=O)OCc2ccccc2)CC1 (stereo unspecified)	3021	-44
COC(=O)C1=C(c2ccc(OC)c(OC)c2)C[C@@H]2CC[C@H]1N2C(=O)N1CCCCC1	2874	-5
c1ccc(C(=NNc2nc3ccccc3s2)c2ccccn2)cc1	6077	11
CCCN1CCC[C@H](c2cccc(O)c2)C1	5171	-2
COc1cc(NC(=O)c2cc(OC)c(OC)c(OC)c2)c2ncccc2c1	4246	-16
O=C1NC2c3c(Cl)sc(Cl)c3C(=O)C2O1 (stereo unspecified)	2993	-5
CCOc1ccccc1C=NNC(=O)c1cccc2ccccc12	3372	-9
C=CC[C@@H](CC(=O)N[C@@H](CO)Cc1ccccc1)C(=O)N[C@@H](COC(=O)[C@@H](CC=C)Cc1ccc(F)cc1)Cc1ccccc1	3750	-16
CC1(C)O[C@@H]2[C@H](O1)[C@@H](CO)O[C@H]2n1c(N2CCCCC2)nc2c(N)ncnc21	3974	-8
CCOC(=O)[C@H]1[C@H]2COc3ccc(Br)cc3[C@@H]2N2C(=O)N(c3ccc(F)cc3)C(=O)[C@@]12C	3646	-11
O=C1C=C(c2cc3ccccc3s2)C[C@@H](c2ccc(Cl)cc2)C1	3555	-17
O=C(O)c1cccc2c1C(=O)c1ccc(Cl)cc1S2(=O)=O	3814	-19
C[C@@H](CN1CCC[C@H]1CN1C(N)=NC[C@@H]1Cc1ccccc1)N1C[C@@H](Cc2ccccc2)N(CCCC2CCCC2)C1=N	3322	2
COC(=O)C1CCN(C(=O)c2cc(-c3ccco3)nc3ccccc23)CC1	2884	-1
COC(=O)C1=C(c2c(C)noc2C)C[C@@H]2CC[C@H]1N2C(=O)N1CCCCC1	4101	-6
C[C@@H]1COC(=O)[C@H](CC(=O)OC(C)(C)C)C/C=C\C[C@@H](CC(=O)NCCO)C(=O)N1	3484	-9
O=C(O)CN1C(=O)N/C(=C\c2cccn2-c2ccc(P(=O)(O)O)cc2)C1=O	3583	-8
Cc1ccc(C(=O)OCC(=O)Nc2ccc(F)c(Cl)c2)o1	2761	-11
Cc1ccc(NC(=O)c2ncn(CCCNCc3ccccn3)n2)cc1C	2752	-14
O=C1C=C(c2ccc(-c3ccccc3)c(F)c2)C[C@@H](c2ccc(F)cc2)C1	2914	-12
COCCn1c(CN2CCN(C)CC2)nc2c1c(=O)n(C)c(=O)n2C	4134	-12
COc1cc2c(cc1OC)C13CCN4CC5=CCOC(CC(=O)O)C(C5CC41)C3N2 (stereo unspecified)	2918	-33
COc1ccc(B(O)O)c(CN2CCN(C(=O)OC(C)(C)C)CC2)c1	3061	-23
Nc1c(Cl)cc(S(N)(=O)=O)cc1S(N)(=O)=O	3628	-19
COc1ccc2c(c1)OC[C@H]1[C@H]2N2C(=O)c3cc(Br)ccc3NC(=O)[C@@]2(C)[C@H]1c1ccccc1	4385	-7
CC1CC2(C)C(CCC3C2CCC2(C)C(OP(=O)(N4CC4)N4CC4)CCC32)CC1=O (stereo unspecified)	4128	-16
O=C(C[C@@H]1C/C=C\C[C@@H](NC(=O)OCC2c3ccccc3-c3ccccc32)C(=O)OC[C@@H](Cc2ccccc2)NC1=O)NCCO	2870	-18
C=CCCC1CN(Cc2ccco2)S(=O)(=O)c2c(F)cccc2O1 (stereo unspecified)	3827	13
COc1cc2cnc(-c3ccccc3)c(-c3cccc(C(F)(F)F)c3)c2cc1OC	4092	-1
CCN(c1ccccc1)S(=O)(=O)c1cc(C(=O)NCC(c2ccc(OC)cc2)N(C)C)ccc1C (stereo unspecified)	3890	-14
C[C@H](CO)N1C[C@H](C)[C@@H](CN(C)Cc2ccncc2)Oc2c(NS(=O)(=O)c3ccccc3)cccc2C1=O	3879	-7
O=C(N1CCc2cc(S(=O)(=O)NC[C@H]3O[C@@H](n4ccc(=O)[nH]c4=O)[C@H](O)[C@@H]3O)ccc2C1)C(F)(F)F	3591	3
Next section
SMILES	Bead autofluor	PrP UTR inh
CCSc1ccc([C@@H]2[C@@H]3C(=O)N(C)C(=O)[C@@H]3[C@]3(C(=O)OC)CCCCN23)cc1OC	4263	-24
O=C(CCNC(=O)c1ccccc1)NCCCc1ccccc1	3976	-20
CN(C)c1ccc(C=c2c3ccccc3n3c2cc(-c2ccccc2)[n+]3C)cc1	4637	-17
OCC1OC(n2cnc3c(/C=C(\O)c4ccccc4)ncnc32)C(O)C1O (stereo unspecified)	4158	6
CC(C)(C)OC(=O)N(Cc1ccccc1)Cc1cccc(OCc2cccc(NC(=O)C3CC3)c2)c1	2899	-22
C#CCOCCOCCOCCNc1nc(N2CCN(C(=O)[C@H](CO)n3cc([C@@H](N)C(C)C)nn3)CC2)nc(N2CCN(C(=O)[C@H](CO)n3cc([C@@H](N)C(C)C)nn3)CC2)n1	3492	-3
O=C(NCC1CCCO1)c1ccccc1NS(=O)(=O)c1cc([N+](=O)[O-])ccc1Cl (stereo unspecified)	3642	2
COC(=O)C1=C(c2c(C)noc2C)C[C@@H]2CC[C@H]1N2C(=O)N1CCC(O)CC1	3713	-22
CC(C)C[C@H](CO)N(Cc1ccccc1)S(=O)(=O)N(Cc1ccccc1)[C@@H](CO)CC(C)C	4331	3
COc1cc(C2C3=C(COC3=O)Oc3cc4c(cc32)OCO4)ccc1O (stereo unspecified)	3509	32
c1cnc2ccc3c(c2c1)COCO3	3725	-17
CN1OC[C@@H]2CN(C(=O)CCc3ccccc3)[C@H](c3cccc(-c4ccc(C#N)cc4)c3)C[C@@H]21	3936	-29
COC(=O)C1=C(c2cccc(OCc3ccccc3)c2)C[C@@H]2CC[C@H]1N2C(=O)NCc1ccc(C(F)(F)F)cc1	4017	-12
COC1OC2COC(c3ccccc3)OC2C(O)C1NC(=O)c1ccccc1 (stereo unspecified)	4180	-10
COc1ccccc1NC(=O)CN1CCN(c2ccc(F)cc2)CC1	3829	-18
C#CCOCCOCCOCCNc1nc(N2CCN(C(=O)[C@H](CCCCN)n3cc([C@@H](N)[C@H](C)CC)nn3)CC2)nc(N2CCN(C(=O)[C@H](CCC(=O)O)n3cc([C@@H](N)CCCCN)nn3)CC2)n1	3873	-2
CCN1C/C(=C\c2cc(OC)c(OC)c(OC)c2)C2=NN(c3ccccc3)C(c3cc(OC)c(OC)c(OC)c3)C2C1 (stereo unspecified)	3912	-1
COc1cccc(NC(=O)CN(C)C(=O)[C@@H]2CCCN2C(=O)c2cccs2)c1	3989	-16
COc1ccccc1N1CCN(CCCN2CC(=O)N3CCCCC3C2=O)CC1 (stereo unspecified)	4433	-8
O=C1NCCOC(=O)[C@H](Cc2ccc(F)cc2)CC/C=C/C[C@@H]1CC(=O)N(CCO)Cc1ccccc1	3543	-16
CC(NC(=O)C(Cc1ccccc1)=NO)c1ccccc1 (stereo unspecified)	3655	-13

Record cards, from the list above.
Results for `CC=C(CC)C1(CC)C(=O)NC(=S)NC1=O` → Bead autofluor: 3284; PrP UTR inh: -13
Results for `Cc1ccc(NC(=O)c2ncn(CCCNCc3ccccn3)n2)cc1C` → Bead autofluor: 2752; PrP UTR inh: -14

A portion of the library; rates above refer to the full screens.
